GLP1R ag: activates the human GLP-1 receptor | HEK293 GLP-1R CRE-luciferase, luminescence, 4-6 h; cells express a hypersensitive GLP-1R form | Potency, µM (highest dose often 45.6 µM), without a hit: at the top dose activation, hits mostly activators | 380,000 compounds, 0.007% hits | AID 624172; note: potency is the fitted concentration of half-maximal effect; % of control where 0% means no effect
Target sequence (P43220 whole entry, looked up): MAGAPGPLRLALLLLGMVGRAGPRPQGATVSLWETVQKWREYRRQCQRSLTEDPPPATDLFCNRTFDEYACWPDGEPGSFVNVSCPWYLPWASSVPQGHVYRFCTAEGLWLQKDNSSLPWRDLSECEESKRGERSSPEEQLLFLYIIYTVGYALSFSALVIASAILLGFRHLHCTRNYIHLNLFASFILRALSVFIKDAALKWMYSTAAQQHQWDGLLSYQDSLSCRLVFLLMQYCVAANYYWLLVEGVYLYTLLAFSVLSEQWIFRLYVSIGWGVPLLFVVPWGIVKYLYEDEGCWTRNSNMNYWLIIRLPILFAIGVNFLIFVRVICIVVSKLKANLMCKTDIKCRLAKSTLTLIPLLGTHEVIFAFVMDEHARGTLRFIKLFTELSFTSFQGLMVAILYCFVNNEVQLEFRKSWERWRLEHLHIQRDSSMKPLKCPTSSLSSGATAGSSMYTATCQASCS
PTHR1 agonist: agonists of human PTHR1 parathyroid hormone receptor | Q03431 | HEK293 GP2 PTHR1 cells, GloSensor cAMP luminescence, 1 h | Potency, µM (doses to about 115 µM), for the others: top-dose activation, most hits filed as activators | 410,000 compounds, 0.075% hits; note: potency is the fitted concentration of half-maximal effect; nearly all actives have a fitted effect of over 55% in size; some results filed as inactive show a strong effect at the top dose; inactives centre near -15; many of its hits are not listed in these tables
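HEK-293-derived GP2 cells expressing PTHR1 and a GloSensor cAMP reporter, 3,000/well, plated overnight, given luciferin plus IBMX (each 0.5 mM as added) for 1 h at 37 °C, then compound for 1 h at 37 °C. Luminescence was read after 15 min at room temperature.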
GLP1R inv ag: acts as inverse agonist at human GLP-1 receptor | Potency, µM (titrated, usually from 38.3 µM), inactives show top-dose activity change, negative = inhibition, usual class: inhibitors | 410,000 compounds, 1.6% hits | HEK293 GLP-1R CRE-luciferase, luminescence, 24 h; GLP-1R form is constitutively active | P43220; note: potency is the fitted concentration of half-maximal effect; % is set by controls: 0 for no effect and ±100 for the full control effect; nearly all actives have a fitted effect of over 55% in size
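Assay principle: reduced luminescence from a cAMP-responsive reporter in HEK293 cells co-expressing a constitutively active GLP-1R. Conditions: 24 hr compound incubation, 37 deg C, 5% CO2.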
TDP-43 yeast inh: TDP-43 toxicity inhibition in yeast. Potency, µM (highest dose often 46.1 µM), without a hit: at the top dose growth rescue (activation), hits mostly activators. 410,000 compounds, 1.8% hits. AID 652104. TDP-43 expressing yeast growth rescue, BacTiter-Glo, 24 h; note: potency is the fitted concentration of half-maximal effect; % of control where 0% means no effect; nearly all actives have a fitted effect of over 50% in size
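Yeast expressing TDP-43 (pregrown in raffinose, seeded at OD600=0.02 in galactose medium) exposed to compounds 24 hr at 30 deg C. Growth read by BacTiter-Glo luminescence; rescue of toxicity appears as increased signal.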
pAkt inh: Akt phosphorylation inhibition; 360,000 compounds, 0.32% hits; activity change, % for hits at 50 µM; Neuro2A IGF-stimulated pAkt S473 HTRF, 20 min; active compounds read low; in the data active = activity change below about -80%; inconclusive = mostly about -51% to -80%; note: % is set by controls: 0 for no effect and ±100 for the full control effect
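Single-point screen (50 µM final compound) in Neuro2A cells stimulated 20 min with 6 nM IGF at 37 deg C. After lysis, Ser473-phosphorylated Akt read by HTRF (ex 330 nm, em 615/665 nm) as the 665/615 ratio.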
aSyn yeast inh: rescues yeast growth from alpha-synuclein toxicity | Yeast expressing alpha-synuclein, growth rescue, BacTiter-Glo, 24 h | Potency, µM (doses to about 46.1 µM), without a hit: at the highest dose growth rescue (activation), most hits filed as activators | 370,000 compounds, 0.14% hits; note: potency is the fitted concentration of half-maximal effect; % of control where 0% means no effect; nearly all actives have a fitted effect of over 65% in size
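Screening used galactose-induced yeast with toxic alpha-synuclein levels, exposed to compound for 24 hr at 30 deg C. Cell growth, read with BacTiter-Glo luminescence, gave the measured signal.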
Numbers without * were called inactive; i = inactive; ? = inconclusive; / = no result given; & = joins results of further samples; [ ] = remark or other dose. Unless noted, calls come from the whole dose curve; as a rule, active = well fitted curve in the direction sought with a large enough effect; inconclusive = small, poorly fitted or top-dose-only effect, or another doubt; inactive = no such curve, though single readings can be large; an effect the other way counts as inactive or inconclusive. These rows are one share of the data. The share of hits here may be higher or lower than overall.

entry | canonical_smiles | aSyn yeast inh | GLP1R ag | pAkt inh | TDP-43 yeast inh | PTHR1 agonist | GLP1R inv ag
1 | c1ccc(-c2ccc(C(c3ccccc3)n3ccnc3)cc2)cc1 (centres undefined) | ? | -5%&-6% | i | 6.3µM* | -38%[inhibitor] | -23%
2 | CCOC(=O)c1ncn2c1CN(C)C(=O)c1cc(F)ccc1-2 | 0%&11% | -1%&3% | / | ? | -43% | -6%
3 | O=c1[nH]c2ccccc2n1C1CCN(CCCC(c2ccc(F)cc2)c2ccc(F)cc2)CC1 | 19%&-9% | -2%&-7% | i | ? | -49%[inhibitor] | ?
4 | CN1CCCC1c1cccnc1 (centres undefined) | 1%&4% | -5% | i | 17% | i | -2%
5 | CN1C2CC(OC(=O)C(CO)c3ccccc3)CC1C1OC12 (centres undefined) | 4%&-5%&-3% | 1%&5%&3% | i | 17%&14%&-13% | -34%&-7%[inhibitor] | -2%&-2%&1%
6 | C#C[C@]1(O)CC[C@H]2[C@@H]3CCC4=CC(=O)CCC4(C)[C@H]3CCC21C (some centres undefined) | / | -3% | / | / | / | /
7 | O=C(O)/C=C\C(=O)O | 0% | -5% | i | 20% | i | 2%
8 | C[C@]12CC[C@H](O)CC1=CC[C@@H]1[C@@H]2CC[C@]2(C)C(=O)CC[C@@H]12 | ? | -2% | i | 16µM* | -15% | 8%
9 | O=S(=O)(O)c1cc(O)ccc1O | -1% | -3% | i | 0% | i | 0%

Of the compounds above, these contain nitrogen in an aromatic ring.
entry | canonical_smiles | aSyn yeast inh | GLP1R ag | pAkt inh | TDP-43 yeast inh | PTHR1 agonist | GLP1R inv ag
1 | c1ccc(-c2ccc(C(c3ccccc3)n3ccnc3)cc2)cc1 (centres undefined) | ? | -5%&-6% | i | 6.3µM* | -38%[inhibitor] | -23%
2 | CCOC(=O)c1ncn2c1CN(C)C(=O)c1cc(F)ccc1-2 | 0%&11% | -1%&3% | / | ? | -43% | -6%
3 | O=c1[nH]c2ccccc2n1C1CCN(CCCC(c2ccc(F)cc2)c2ccc(F)cc2)CC1 | 19%&-9% | -2%&-7% | i | ? | -49%[inhibitor] | ?
4 | CN1CCCC1c1cccnc1 (centres undefined) | 1%&4% | -5% | i | 17% | i | -2%

Entries of single compounds, quoted from the list. Values in the order: aSyn yeast inh | GLP1R ag | pAkt inh | TDP-43 yeast inh | PTHR1 agonist | GLP1R inv ag
Profile of `O=S(=O)(O)c1cc(O)ccc1O` = -1% | -3% | i | 0% | i | 0%
Profile of `O=c1[nH]c2ccccc2n1C1CCN(CCCC(c2ccc(F)cc2)c2ccc(F)cc2)CC1` = 19%&-9% | -2%&-7% | i | ? | -49%[inhibitor] | ?

From no. 1 to 2, copied from above:
entry | canonical_smiles | aSyn yeast inh | GLP1R ag | pAkt inh | TDP-43 yeast inh | PTHR1 agonist | GLP1R inv ag
1 | c1ccc(-c2ccc(C(c3ccccc3)n3ccnc3)cc2)cc1 (centres undefined) | ? | -5%&-6% | i | 6.3µM* | -38%[inhibitor] | -23%
2 | CCOC(=O)c1ncn2c1CN(C)C(=O)c1cc(F)ccc1-2 | 0%&11% | -1%&3% | / | ? | -43% | -6%
